Bioassay records deposited in PubChem BioAssay by National Center for Advancing Translational Sciences (NCATS).
2A StopGo: lowers the luciferase signal of an FMDV 2A StopGo reporter | human cells with a luciferase reporter of 2A StopGo recoding; control for the full effect not named in the record | Potency, µM (series often up to 57.9 µM), without a hit: top-dose signal change, negative = less light | actives 1.2% (n = 410,000) | AID 1159524; active = well fitted falling curve with a large enough effect; inconclusive = small, poorly fitted or top-dose-only effect; inactive = no such curve, though single readings can be large or run the other way; tested in HEK293T cells; note: % is set by controls: 0 for no effect and ±100 for the full control effect; nearly all actives have a fitted effect of over 45% in size; luciferase light after 4 h
MARV entry inh: Marburg virus entry inhibition | AID 540276 | actives 1.8% (n = 300,000) | Potency, µM (titrated, usually from 37.8 µM), without a hit: top-dose activity change, negative = inhibition, usual class: inhibitors | Marburg virus pseudotyped entry inhibition, cell reporter; control for the full effect not named in the record; about a third of the inactives were read at about 46 µM; active = well fitted inhibition curve with a large enough effect; inconclusive = small, poorly fitted or top-dose-only effect, or effect the other way; inactive = flat fitted curve, though single readings scatter; tested in HEK293 cells; about a fifth of its hits are not listed in these tables; note: % is set by controls: 0 for no effect and ±100 for the full control effect; luciferase read-out
Cruzain noTriton: cruzain (T. cruzi) inhibition without detergent; Potency, µM, for inactives: max response, negative = inhibition, actives largely listed as inhibitors; P25779; actives 2.3% (n = 200,000); purified cruzain, Z-FR-AMC fluorescence, no detergent; active = well fitted curve in the direction sought with a large enough effect; inconclusive = small, poorly fitted or top-dose-only effect, or another doubt; inactive = no such curve, though single readings can be large; an effect the other way counts as inactive or inconclusive;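 note: plate controls were enzyme without inhibitor for no effect and buffer without enzyme for full effect; nearly all actives have a fitted effect of over 40% in size; top concentration of the series not given in the record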
Target sequence (P25779 123-467 limits assumed): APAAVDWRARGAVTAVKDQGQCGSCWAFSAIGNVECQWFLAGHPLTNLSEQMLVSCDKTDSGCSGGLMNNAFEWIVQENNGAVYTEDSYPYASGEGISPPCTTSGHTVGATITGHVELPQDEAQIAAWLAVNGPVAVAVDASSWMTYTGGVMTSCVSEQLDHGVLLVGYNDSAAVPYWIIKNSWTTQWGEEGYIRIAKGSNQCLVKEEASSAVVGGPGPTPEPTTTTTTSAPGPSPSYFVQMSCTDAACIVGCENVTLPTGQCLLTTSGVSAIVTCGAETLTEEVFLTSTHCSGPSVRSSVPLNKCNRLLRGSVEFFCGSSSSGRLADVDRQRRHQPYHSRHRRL
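Purified cruzain at 1.5 nM, pre-incubated 15 min with compound at room temperature in 100 mM sodium acetate pH 5.5, 5 mM DTT, 0.00005% Triton X-100. Reaction started with 2 uM Z-FR-AMC; AMC fluorescence increase over 60 s gives rate.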
Cruzain Triton: inhibitors of Trypanosoma cruzi cruzain with detergent; purified cruzain, Z-FR-AMC fluorescence, 0.01% Triton; Potency, µM, inactives show max response, negative = inhibition, most hits filed as inhibitors; AID 1478; actives 0.43% (n = 200,000); active = well fitted curve in the direction sought with a large enough effect; inconclusive = small, poorly fitted or top-dose-only effect, or another doubt; inactive = no such curve, though single readings can be large; an effect the other way counts as inactive or inconclusive;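 note: plate controls were neutral wells for no effect and buffer without enzyme for full effect; nearly all actives have a fitted effect of over 40% in size; top concentration of the series not given in the record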
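Detergent-containing arm of a paired screen for aggregation-based inhibition: 0.01% Triton X-100 present. Cruzain at 1.5 nM cleaved 2 uM Z-FR-AMC at pH 5.5 with 5 mM DTT; AMC fluorescence gain over 60 s measured activity.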
NS1 function inh: influenza NS1 inhibition; S. cerevisiae slowed by influenza A NS1, growth recovery by OD600; actives 0.4% (n = 270,000); Potency, µM (highest dose often 46.1 µM), inactives show at the top dose activity, positive = more growth; note: actives are rising curves; nearly all actives have a fitted effect of over 50% in size
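Recovery from NS1-induced slow growth read by OD600 in budding yeast switched to galactose assay medium (pH 6.0, -URA) at 1:100 dilution. Compound 23 nl per well; the matching strain lacking NS1 serves as control.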
SARS PLP yeast: blocks SARS-CoV papain-like protease in a yeast assay. S. cerevisiae expressing SARS-CoV PLpro, growth rescue; control for the full effect not named in the record. Potency, µM (series often up to 32.9 µM), without a hit: at the highest dose activity, positive = growth rescue. actives 0.19% (n = 330,000); note: 0% is about no effect; nearly all actives have a fitted effect of over 55% in size; growth read by luminescence after 48 h
LASV entry inh: inhibitors of Lassa virus binding or cell entry. Potency, µM (doses to about 37.9 µM), for inactives: at the top dose activity change, negative = inhibition, most hits filed as inhibitors. Lassa virus pseudotype entry inhibition, cell reporter; control for the full effect not named in the record. actives 1.2% (n = 300,000). AID 540256; active means well fitted inhibition curve with a large enough effect; inconclusive means small, poorly fitted or top-dose-only effect, or effect the other way; inactive means flat fitted curve, though single readings scatter; tested in HEK293 cells; note: % is set by controls: 0 for no effect and ±100 for the full control effect; nearly all actives have a fitted effect of over 50% in size; luciferase read-out
RE007 growth inh: less growth of the S. pombe RE007 Vpr strain; actives 0.21% (n = 360,000); Potency, µM (top dose mostly 92.2 µM), without a hit: at the top dose activity change, negative = less growth; S. pombe RE007 Vpr strain, BacTiter-Glo ATP luminescence, 24 h; control for the full effect not named in the record; active = well fitted falling curve with a large enough effect; inconclusive = small, poorly fitted or top-dose-only effect; inactive = no such curve, though single readings can be large or run the other way;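 note: % is set by controls: 0 for no effect and ±100 for the full control effect; nearly all actives have a fitted effect of over 50% in size; the assay follows cell death caused by Vpr and the record does not say whether a fall means rescue or toxicity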
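Fission yeast strain RE007, carrying one chromosomally integrated HIV-1 vpr copy, was seeded at OD 0.01 in PMG+AL medium with 23 nL pinned compound. After 24 h at 30 °C and 99% humidity, viability was read by BacTiter-Glo luminescence.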
An asterisk follows results filed as active; ? = inconclusive; nt = not tested or not shown; & = joins results of further samples; [ ] = another dose, or the depositor's remark. Unless noted, calls come from the whole dose curve; as a rule, active means well fitted rising curve with a large enough effect; inconclusive means small, poorly fitted or top-dose-only effect; inactive means no such curve, though single readings can be large or run the other way. Potency is the fitted concentration of half-maximal effect.

SMILES	2A StopGo	MARV entry inh	Cruzain noTriton	Cruzain Triton	NS1 function inh	SARS PLP yeast	LASV entry inh	RE007 growth inh
CCOc1ccc(N(CC(=O)NCc2ccc(F)cc2)C(=O)c2snc(C(N)=O)c2N)cc1	-7%	-15%[46.1 µM]	nt	nt	9%	-9%	-14%	15%
CN(CC(=O)Nc1ccccc1C(F)(F)F)C(=O)Cc1ccccc1F	17%	12%	nt	nt	-8%	0%	2%	-6%
CC(=O)N1CCc2c(sc3c2c(=O)n(CCc2ccccc2)c(=O)n3CC(=O)Nc2ccc(C)c(F)c2)C1	-2%	-2%[46.1 µM]	2%	-3.6%	nt	nt	nt	nt
CC(C)n1c(-c2ccccc2F)n[nH]c1=S	4%	0%	-1%	8.3%	17%	1%	3%	10%
O=C(Nc1ccc(OC(F)(F)F)cc1)C(NS(=O)(=O)c1cccc2nsnc12)c1ccccc1 (stereo unspecified)	-11%	?	-6%	-13%	nt	nt	?	nt
O=C(c1cnccn1)N(Cc1ccco1)C1(C(=O)NC2CCCCC2)CCCCC1	-27%	?	14%	-0.2%	3%	-4%	1%	6%
CC(C(=O)NCc1ccccc1)N1CCN(c2ccc(F)cc2)CC1 (stereo unspecified)	-23%	nt	nt	nt	5%	-2%	nt	-1%
O=C(NCc1ccc(F)cc1)c1cc(-c2ccco2)on1	43%[activator]	8%	?	-7.0%	-4%	-4%	?	5%
CCCCC(=O)Nc1ccc(C)c(S(=O)(=O)N2CCCCCC2)c1	?	?	nt	nt	nt	0%	?	7%
C=CCn1c(-c2ccccc2OCC)n[nH]c1=S	1%	?	nt	nt	nt	-2%	8%	-10%
Cc1cc(C)c(Cn2c3ccccc3c3cnn(CC(=O)NCCN4CCOCC4)c(=O)c32)c(C)c1	0%	nt	nt	nt	19%	-4%	nt	4%
Oc1c(Cl)cc(Cl)c(Cl)c1CN1CCOCC1	-20%	6%[46.1 µM]	nt	nt	nt	nt	-10%[46.1 µM]	-11%
CC1CCCN(c2ncnc3c2cnn3-c2ccc(F)cc2)C1 (stereo unspecified)	18µM*	nt	0%	-0.6%	nt	nt	-5%[46.1 µM]	nt
N=C1C(c2nc3ccccc3[nH]2)=C(O)CN1NC(=O)COc1cccc(F)c1	nt	2%	-12%	-4.5%	12%	-1%	4%	nt
CC(C)C[C@H](NC(=O)OC(C)(C)C)C(=O)N[C@@H](CO)[C@H](O)[C@@H]1C[C@@H]1C(=O)NC1CCCCC1	6%	nt	nt	nt	-1%	-3%	nt	45%
O=C(CN1CCN(C(C(=O)Nc2ccc(F)cc2)c2ccccc2)CC1)NC1CC1 (stereo unspecified)	-1%	-1%	nt	nt	nt	-1%	-20%	-18%
Cc1ccc(NC(=O)CN2C(=O)NC3(CCc4ccccc43)C2=O)cc1Cl (stereo unspecified)	-19%	?	1%	-4.1%	9%	0%	-1%	-5%
O=C(c1ccccc1)c1nn(-c2ccc(Cl)cc2)c(=O)cc1C(F)(F)F	28µM*	8.9µM*	-1%	-4.2%	-48%	-3%	11µM*	6%
Cc1ccc(-n2ncc3c(=O)n(Cc4cccc(Cl)c4)cnc32)cc1C	8%	-1%[46.1 µM]	15%	0.0%	nt	nt	?	nt
COC(=O)[C@H]1Cc2cnoc2C[C@]1(C)C(=O)O	-23%	8%	-2%	0.6%	14%	10%	-4%	-9%
Cc1cccc(OCCSc2nc3ccc(NC(=O)COc4ccccc4)cc3s2)c1	0%	-2%[46.1 µM]	-7%	-0.2%	nt	nt	2%[46.1 µM]	nt
c1ccc(-c2noc(-c3ccno3)n2)nc1	0%	nt	nt	nt	2%	0%	nt	-10%
COc1ccc(NC(=O)Nc2cccc(OCc3cc(=O)n4cccc(C)c4n3)c2)c(OC)c1	-16%	nt	?	-0.1%	nt	nt	-14%[46.1 µM]	nt
Cc1nn(Cc2ccccc2Cl)c(C)c1NC(=O)C1C2CCC(O2)C1C(=O)O (stereo unspecified)	2%	-2%	12%	8.3%	3%	-4%	?	48%
CC1=NN(c2ccccc2)C(=O)C1C(=O)c1ccc([N+](=O)[O-])cc1 (stereo unspecified)	-13%	?	nt	nt	nt	5%	?	-9%
COc1ccc(CNC(=S)NC(C)CCc2ccccc2)cc1 (stereo unspecified)	-9%	?	nt	nt	nt	-2%	?	4%
COc1ccc(NC(=O)c2cc3ccccc3oc2=O)c(OC)c1	56%[activator]	nt	nt	nt	-5%	2%	nt	-6%
O=C(O)c1ccc(/C=N/Nc2ccc(C(F)(F)F)cn2)cc1	-9%	-7%[46.1 µM]	nt	nt	nt	-2%	-2%	9%
CN(Cc1cn(C)nc1-c1ccccc1F)Cc1nccn1C	-11%	17%[46.1 µM]	nt	nt	8%	0%	0%[46.1 µM]	-10%
Cc1ccc(-n2nnnc2SCC(=O)NC2CCCc3ccccc32)cc1 (stereo unspecified)	-7%	2%	4%	-6.7%	-42%	-68%	-12%	21%
CC(=O)Nc1ccc(S(=O)(=O)NC2=C(N3CCN(c4ccc(F)cc4)CC3)C(=O)c3ccccc3C2=O)cc1	?	?	?	-10%	7%	3%	?	9%
CCc1nc(SCC(=O)Nc2nccs2)c2oc3ccccc3c2n1	-29%	-18%	?	4.0%	5%	0%	-17%	14%
C=CCn1c(-c2cc(-c3ccc(C)cc3)nc3ccccc23)n[nH]c1=S	12%	?	nt	nt	nt	-9%	-7%[46.1 µM]	-1%
COc1ccc(S(=O)(=O)N2CCCC(C(=O)NCCC(C)C)C2)cc1 (stereo unspecified)	-22%	-19%[46.1 µM]	nt	nt	nt	-5%	9%	5%
CCOC(=O)c1cc(-c2ccc(C)cc2)n(CCC(=O)NCc2ccccc2)c1C	-4%	-22%[46.1 µM]	?	-4.7%	nt	nt	nt	nt
CN(CC(=O)NCCCN1CCOCC1)S(=O)(=O)c1ccc(Br)cc1	-3%	4%	0%	5.4%	0%	4%	7%	-14%
CCCCNC(=O)CSc1nnc(-c2ccco2)n1C	27%	-12%	3%	2.6%	2%	-1%	18%	6%
Cc1cnnc2ccc3c(no[n+]3[O-])c12	-21%	3%	-5%	0.7%	1%	-4%	-3%	-9%
CCC1(c2ccccc2)NC(=O)N(CC(=O)Nc2ccc(OC)nc2)C1=O (stereo unspecified)	-21%	-2%	nt	nt	1%	-2%	?	2%
Cc1nc2ccccc2c(=O)n1-c1ccc(F)c(NC(=O)c2cccs2)c1	-11%	9%[46.1 µM]	nt	nt	nt	-2%	1%	4%
CC(C)CC1Nc2ccc(C(=O)NCCCOC(C)C)cc2NC1=O (stereo unspecified)	-8%	-4%[46.1 µM]	-4%	-5.9%	nt	nt	?	nt
NC(=O)C1CCN(CC(=O)Nc2ccccc2Sc2ccccc2)CC1	-10%	-8%	-6%	-1.1%	8%	24%	?	19%
O=C(NCc1ccncc1)C(=O)Nc1nccs1	-6%	2%[46.1 µM]	nt	nt	-1%	2%	4%[46.1 µM]	-29%
COc1ccc(N=NC2=C(O)CC(C)(C)CC2=O)cc1	29%	-25%[46.1 µM]	-1%	-7.2%	-5%	-12%	-5%	-2%
O=C(NCc1ccco1)/C(=C\c1ccco1)NC(=O)c1ccccc1Cl	-4%	?	nt	nt	-8%	1%	0%	1%
COc1cc(OC)c(NC(=O)N2CCOc3ccc(C)cc32)cc1Cl	0%	nt	2%	-0.4%	nt	nt	4%[46.1 µM]	nt
Fc1cccc(-c2nn[nH]n2)c1	-18%	22%	3%	1.0%	-5%	-2%	4%	-8%
CN(C(=O)c1ccc(COc2ccccc2Br)o1)c1ccccc1	-6%	-16%	nt	nt	nt	-1%	-17%	-1%
CNS(=O)(=O)c1cc(-c2nnc(Nc3ccc(NC(C)=O)cc3)c3ccccc23)ccc1C	51%[activator]	?	nt	nt	-14%	0%	-4%	3%
CCOc1ccc(NC(=O)Cn2nc(CC)n3c(cc4sccc43)c2=O)cc1	-16%	11%[46.1 µM]	11%	-2.3%	nt	nt	nt	nt
C=CCn1c(N2CCCCCC2)nc2c1c(=O)[nH]c(=O)n2C	nt	-6%	-6%	-4.5%	1%	-5%	-17%	2%
O=C(Cc1cc(=O)[nH]c(=O)[nH]1)NCc1ccc(Cl)cc1	-11%	6%	3%	0.1%	13%	-7%	17%	-11%
CCCCN(C(=O)CSc1n[nH]c(-c2ccc(C)cc2)n1)c1c(N)n(CCCC)c(=O)[nH]c1=O	43%[activator]	24%	nt	nt	nt	nt	-1%	0%
CCc1cc2cccc(C)c2nc1SCC(=O)N1CCN(C(=O)c2ccco2)CC1	?	-20%&-20%[46.1 µM]	?	-11%	-60%	9%	-17%	16%
CCCCOC(=O)Nc1ccc(S(=O)(=O)Nn2cnnc2)cc1	5%	16%	-11%	2.2%	4%	4%	-12%[14.3 µM]	5%
CCCN1CCC(=O)N([C@H](CN=[N+]=[N-])Cc2ccccc2)CC1	9%	nt	nt	nt	-5%	10%	nt	-10%
Cn1c(SCC(=O)Nc2sccc2C#N)nnc1C1CC1	0%	5%	nt	nt	nt	-5%	23%	-4%
CCN(c1ccccc1)S(=O)(=O)c1ccc(F)c(C(=O)Nc2ccc(C)cc2)c1	0%	nt	8%	-0.5%	nt	nt	?	nt
CCCCCC(=O)O/N=C(\C)c1ccn(S(=O)(=O)c2ccccc2)c1	-6%	9%	nt	nt	-53%	-3%	21%	19%
Cn1nccc1/C=C(/C#N)S(=O)(=O)c1ccccc1	0%	-6%	5%	8.5%	11%	1%	-5%	?
Other compounds follow:
SMILES	2A StopGo	MARV entry inh	Cruzain noTriton	Cruzain Triton	NS1 function inh	SARS PLP yeast	LASV entry inh	RE007 growth inh
O=C(NNC(=O)c1ccc(Cl)c(Cl)c1)c1cccnc1	4%	nt	nt	nt	-7%	-2%	nt	-5%
Cn1nnnc1SCC(=O)N1CCN(S(=O)(=O)c2ccccc2)CC1	-7%	nt	nt	nt	5%	1%	nt	9%
COc1ccc(Nc2cc(Sc3ccc(OC)cc3)ncn2)cc1	?	?	nt	nt	-2%	1%	?	5%
O=S(=O)(N1CCCCC1)n1nnc2ccccc21	nt	16%	-8%	-5.3%	-1%	-2%	7%	13%
CCOC(=O)C(CSCc1ccccc1)NC(=O)OC(C)(C)C (stereo unspecified)	-19%	?	0%	-1.2%	-127%	-7%	3%	18%
